# eIF4H inh: inhibitors of RNA binding by human eIF4H. AID 2012. Q15056. inhibition, % at 35 µM. eIF4H fluorescence polarization binding assay. 0.94% of 290,000 active;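 active means 50% or more with normal probe brightness, or confirmed in later tests; inconclusive means above 50% with abnormal brightness, or retests that disagree; inactive means below 50% or failed in later tests; about a fifth of its hits are not listed in these tables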;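 further: calls also rest on retests at 20 µM and on dose response follow-up; 0% = protein and probe with vehicle and 100% = probe without protein; strong numbers were not always called active; many hits fall short of the cut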
# HIV Env fusion: blocks HIV Env-driven cell-cell fusion. HeLa-JRFL Env/CEM21 cell fusion, luciferase. inhibition, % at 12.3 µM. 1.1% of 360,000 active. AID 651610;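 active means mean replicate inhibition score of at least 50 and every replicate individually at or above 50; inconclusive means only one of the two criteria met; inactive means mean below 50 and not all replicates reaching 50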;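 further: 0% = plate neutral controls and 100% = maraviroc near 300 nM; one replicate is shown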
# Rce1 inh: inhibitors of yeast Ras-converting enzyme; Q03530; yeast membranes, quenched prenylated peptide cleavage fluorescence; calls only; 0.27% of 290,000 active; AID 2563;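 active means fall in fluorescence gain of 50% or more versus controls, with final raw signal at or below 3038400; inconclusive means same 50% fall but final raw signal above 3038400; inactive means fall in fluorescence gain under 50%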;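 further: plate controls were neutral control wells for no effect and wells lacking membranes for full effect; tested at 10 µM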
# UUG fidelity: modulators of start codon recognition fidelity in yeast; activity score, % at 18.7 µM; 0.13% of 350,000 active; S. cerevisiae UUG-firefly luciferase reporter, luminescence/redox ratio;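 active means replicate mean at a twofold rise or more, about +100% in these data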;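 further: firefly luciferase made from a UUG start codon reports start codon fidelity; reporter light over untreated wells divided by growth signal over untreated wells; some hits fall short of that in this replicate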
# MT1-MMP act inh: blocks activation of human MT1-MMP; P50281; HT1080 RFP-PRO-GFP cells, GFP/RFP ratio fluorescence, overnight; percent of plate control window, DMSO zero; GFP/RFP ratio change, % at 20 µM; 0.061% of 360,000 active; AID 651647;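 active means GFP/RFP ratio change of at least 30% with cell ATP level not reduced by more than half and red fluorescence within 50% of control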; further: strong numbers were not always called active
#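 Assay system – RFP-PRO-GFP reporter HT1080 cells · Compound dosing – single dose of 20 µM compound, 1% DMSO final · Incubation – overnight compound exposure at 37 °C · Measure – GFP/RFP fluorescence ratio · Benchmarks – DMSO wells and RFP-L50D-GFP cells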
# PABP FP inh: PABP-poly(A) binding inhibition. inhibition, % at 35 µM. P11940. 1% of 290,000 active. PABP-poly(A) RNA binding, fluorescence polarization;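 active means 50% or more with normal probe brightness, or confirmed in later tests; inconclusive means above 50% with abnormal brightness, or retests that disagree; inactive means below 50% or failed in later tests; about a fifth of its hits are not listed in these tables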;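 further: calls also rest on retests at 20 µM and on dose response follow-up; controls were probe without protein and protein plus probe with vehicle; some compounds called inactive have numbers as strong as hits; many hits fall short of the cut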
# Target sequence (P11940 whole entry, looked up): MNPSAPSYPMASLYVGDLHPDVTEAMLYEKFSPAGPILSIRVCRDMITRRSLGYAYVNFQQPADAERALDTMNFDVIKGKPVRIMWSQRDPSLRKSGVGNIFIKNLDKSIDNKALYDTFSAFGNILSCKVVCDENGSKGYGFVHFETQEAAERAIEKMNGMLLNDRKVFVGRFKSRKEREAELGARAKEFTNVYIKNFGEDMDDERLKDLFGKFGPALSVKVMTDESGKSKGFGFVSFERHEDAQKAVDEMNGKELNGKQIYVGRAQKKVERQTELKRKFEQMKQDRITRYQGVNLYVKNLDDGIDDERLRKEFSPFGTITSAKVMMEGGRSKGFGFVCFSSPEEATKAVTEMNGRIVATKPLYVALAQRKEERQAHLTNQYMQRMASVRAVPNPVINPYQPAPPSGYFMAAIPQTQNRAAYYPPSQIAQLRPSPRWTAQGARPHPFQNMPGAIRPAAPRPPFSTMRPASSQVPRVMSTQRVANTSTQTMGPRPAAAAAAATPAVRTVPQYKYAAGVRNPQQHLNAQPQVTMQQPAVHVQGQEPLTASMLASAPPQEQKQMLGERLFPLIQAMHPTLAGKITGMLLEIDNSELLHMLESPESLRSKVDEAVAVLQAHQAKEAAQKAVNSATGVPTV
# CSC inhib: cancer stem cell inhibition. cancer stem cell-like cells viability, luminescence. inhibition, % at 7.5 µM. 1.1% of 300,000 active;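 active means mean at 75% or more and at least half the replicates too; inconclusive means mean and replicates disagree; tested in HMLE shEcad cells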;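 further: 0% = median of negative and 100% = median of positive control wells; the first replicate is given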
# eIF4H inh retest: further read-out of eIF4H inh, marked with its call; inhibition, %; compound at 20 µM; confirmation average;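 mean of two retest wells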
# PABP FP inh retest: second read-out of PABP FP inh, no call of its own (marks repeat the call); inhibition, %; compound at 20 µM; confirmation repeats;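 mean of two retest wells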
# MT1-MMP act inh RFP: recorded beside MT1-MMP act inh, whose call it bears; RFP signal change, %; measured here: RFP expression control read;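 0 = vehicle wells; hits needed this value within 50% of zero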
# Active calls of the source: *; i = inactive; u = inconclusive; x = not tested or not shown; & = joins results of further samples; [ ] = another dose, or the depositor's remark. These rows are one share of the data. The share of hits here may be higher or lower than overall.
SMILES,eIF4H inh,HIV Env fusion,Rce1 inh,UUG fidelity,MT1-MMP act inh,MT1-MMP act inh RFP,PABP FP inh,CSC inhib,others
Cc1ccc(C(=O)NC(Cc2c[nH]c3ccccc23)C(=O)O)cc1 (configuration not stated),2.2,-25.0,i,-15.1,-4.6,-1.3,4.6,-7.0,
Cn1c(/C=C/N(Cc2ccccc2)c2ccccc2)c([N+](=O)[O-])c(=O)n(C)c1=O,-6.5,14.9,i,7.1,-0.1,-0.3,3.7,0.4,
O=S(=O)(Nc1ccc(Cl)cn1)c1cnc(Cl)c(Br)c1,-3.4,14.2,i,-4.5,0.8,-3.0,-5.7,6.7,
COC(=O)c1c(-c2ccc(C)cc2)csc1NC(=O)C1CC=CCC1C(=O)O (configuration not stated),-1.2,-24.7,i,-10.6,-7.5,-1.6,-0.1,x,
COc1cc(CNC2CCCC2)c(Br)cc1OCc1ccccc1,-8.0,10.5,i,9.8,2.3,-4.0,-3.5,-14.9,
COc1ccc(C2C(C(N)=O)=C(C)Nc3nc(-c4ccccc4)nn32)cc1OC (configuration not stated),-0.1,-9.1,i,3.2,0.3,1.8,11.8,4.0,
COc1ccc2[nH]c(C(=O)O)c(NC(=O)c3cc(OC)c(OC)c(OC)c3)c2c1,1.6,11.6,i,-16.5,3.2,0.9,4.4,3.4,
COc1cccc2cc(C(=O)N3CCc4ccccc43)c(=O)oc12,0.7,-14.7,i,-13.1,5.4,3.3,-4.6,14.4,
COc1cc(OC)cc(C(=O)NNC(=O)CCNS(=O)(=O)c2ccc(C)c(C)c2)c1,x,9.0,x,-5.4,-2.5,-2.1,x,x,
Cc1ccc(C)c(NC(=O)C2COc3ccccc3O2)c1 (configuration not stated),-4.3,-1.4,i,-21.0,0.9,-2.3,-6.6,-6.0,
O=C(NCCc1nnc2ccc(NCc3ccc(Cl)cc3)nn12)c1ccccc1,-5.3,3.9,i,-25.1,-64.0,17.0,-2.8,3.2,
Cc1ccc(NC(=O)COS(=O)c2ccc(C)cc2)cc1 (configuration not stated),-2.8,6.7,i,-9.2,-0.4,3.3,-3.1,-0.7,
CN(C)S(=O)(=O)c1cccc(-c2nn(-c3ccccc3)cc2/C=C2\SC(=S)N(CC(=O)O)C2=O)c1,47.3,-8.0,i,x,-0.5,-0.6,38.3,5.6,
NC(=O)c1ccc(NC(=O)CSc2nnc(-c3ccccn3)n2N)cc1,4.4,-15.1,i,x,0.4,5.2,0.4,-2.3,
O=C(NC1CCCCC1)C1CCN(c2ncccn2)CC1,3.7,10.7,i,-4.5,-0.1,3.3,6.2,-6.8,

# In the list so far, these have a halogen.
SMILES,eIF4H inh,HIV Env fusion,Rce1 inh,UUG fidelity,MT1-MMP act inh,MT1-MMP act inh RFP,PABP FP inh,CSC inhib,others
O=S(=O)(Nc1ccc(Cl)cn1)c1cnc(Cl)c(Br)c1,-3.4,14.2,i,-4.5,0.8,-3.0,-5.7,6.7,
COc1cc(CNC2CCCC2)c(Br)cc1OCc1ccccc1,-8.0,10.5,i,9.8,2.3,-4.0,-3.5,-14.9,
O=C(NCCc1nnc2ccc(NCc3ccc(Cl)cc3)nn12)c1ccccc1,-5.3,3.9,i,-25.1,-64.0,17.0,-2.8,3.2,

# Continuation:
SMILES,eIF4H inh,HIV Env fusion,Rce1 inh,UUG fidelity,MT1-MMP act inh,MT1-MMP act inh RFP,PABP FP inh,CSC inhib,others
CCc1cccc(C)c1NC(=O)COC(=O)C(NS(=O)(=O)c1ccc(Cl)cc1)C(C)O (configuration not stated),6.5,x,i,x,3.4,4.7,21.8,x,
CN1CCN(C(=O)c2ccc3c(=O)n4c(nc3c2)CCCCC4)CC1,-0.7,x,i,x,-1.3,3.4,18.6,-8.4,
CCC(C)NC(=O)c1cn(-c2cccc(C)n2)cn1 (configuration not stated),-8.9,x,i,-5.7,-3.0,-3.4,-6.4,-3.0,
COc1ccc(-n2nc(C(=O)NCC(=O)N3CCC(C)CC3)c3ccccc3c2=O)c(OC)c1,1.8,-58.5,i,1.2,2.3,0.3,-4.3,-5.1,
c1ccc(CC2CCN(c3nnnn3-c3ccccc3)CC2)cc1,-11.9,x,i,-14.0,-4.6,-6.2,7.9,-3.1,
Cc1ccc(-c2cccc(CN3CCN(C4CCN(C(C)C)CC4)C(CCO)C3)c2)o1 (configuration not stated),6.8,11.0,i,x,4.2,-3.1,9.6,7.3,
O=C(C1=C[C@H](c2ccc(Br)cc2)C[C@H](OCCCCO)O1)N1CCN(Cc2ccccc2)CC1,12.5,-13.5[16.7 µM],i,1.8&-21.9,-1.8,-1.7,2.5,-5.9,
O=S(=O)(Nc1ccc(Cl)cn1)c1ccc(Cl)cc1,-4.0,0.8,i,x,-0.2,3.8,-4.9,-7.6,
COc1ccccc1COc1ccc2c(C)c(CCC(=O)O)c(=O)oc2c1C,-3.7,5.6,i,-15.0,4.3,3.2,13.2,1.9,
CC1N/C(=C\C(=O)c2ccccc2)N(O)C1(C)C (configuration not stated),-7.3,x,i,-17.6,1.4,5.0,-0.9,x,
CC(C)CNC(=O)c1ccc(C2SCC(=O)N2Cc2ccccc2)cc1 (configuration not stated),0.2,-5.1,i,x,1.0,-0.5,8.1,-4.1,
Cc1c(Cl)cnc(NC(=O)COC(=O)C2CCCC2)c1Cl,x,x,x,-1.2,-7.4,4.1,x,-15.8,
CC1=C/C(=C(\c2cc(C)c(O)c(Br)c2)c2ccccc2S(=O)(=O)O)C=C(Br)C1=O,-10.5,6.9,i,0.6,59.9,54.0,10.4,40.7,eIF4H inh retest=10.3;PABP FP inh retest=32.8
CCOc1ccc(C(=O)NCC(=O)N2CCC3(CC2)NCCc2[nH]cnc23)cc1,x,0.3,i,-10.0,-2.1,-1.9,x,-15.6,
N#Cc1nc(-c2cccc3ccccc23)oc1NCCN1CCOCC1,-5.3,x,u,-1.2,0.2,-2.7,0.8,-7.1,
O=C(NCc1ccc(Cl)cc1)c1noc2c1CCCC2,-1.1,-47.3,i,-4.4,-3.6,-5.5,-17.4,-4.7,
CC1(C)CC(NC(=O)C(Cl)(Cl)Cl)CC(C)(C)N1,-4.3,7.6,i,x,-0.7,3.3,12.8,-12.3,
N/C(=N\O)c1ccccc1N1CCCCC1,-2.0,-0.1,i,-16.7,3.2,1.8,-0.1,1.9,
CCOc1ccccc1/C=N/NC(=O)c1cc(C(C)C)[nH]n1,-1.8,8.3,i,-6.8,2.3,4.2,-1.1,x,
O=C(NCCc1ccccc1)C1CCCN(C(=O)Nc2ccc(F)cc2)C1 (configuration not stated),-5.1,17.1,i,-6.2,1.8,1.8,-1.4,-9.8,
COc1ccc2c(c1OC)C(=O)N1c3cccc(Cl)c3C(=O)OC21 (configuration not stated),-5.7,x,i,1.5,4.3,3.4,-11.2,-0.5,
CCOC(=O)N1CCN(C(=O)c2ccc(CNS(=O)(=O)c3ccc(OC)cc3)cc2)CC1,5.6,x,i,-7.0,1.4,1.8,3.2,2.7,
O=C(CC1CCCCC1)NCCCN1CCOCC1,-0.5,x,i,-4.3,0.5,0.1,-5.1,-8.9,
Cc1cccc(OC(=O)c2ccncc2)c1C,-7.6,6.1,i,x,-2.1,2.4,9.0,-14.3,
CCOc1ccc(NC(=O)COc2nsnc2N2CCCCC2)cc1,3.2,u,i,-7.6,6.4,-5.7,2.2,-7.0,
NC(=S)NNC(=O)COc1ccccc1O,-1.3,1.1,i,-12.0,-2.0,1.4,8.5,-4.0,
Cc1cc(C)c(C#N)c(SCC(=O)N(CCC#N)c2ccc3c(c2)OCCO3)n1,x,15.8,x,-2.6,-1.1,0.1,x,x,
Cn1c(=O)c(S(=O)(=O)C(C)(C)C)c(O)c2ccccc21,-11.2,-9.1,i,-17.9,-0.6,5.6,-3.2,-5.6,
CN(CC(=O)NC1CC1)S(=O)(=O)c1ccc(Br)cc1,-2.8,2.6,i,-28.3,-2.2,-1.2,0.0,10.3,
COc1ccc(N2CCN(CC(=O)Nc3ncc(C)s3)CC2)cc1,-11.5,-18.5,i,-21.6,4.2,-0.4,-6.1,-4.8,
CC(C)Cc1cc(C(=O)N2CCCC(CO)(Cc3ccc(F)cc3)C2)no1 (configuration not stated),-3.1,8.3,i,x,0.9,1.8,-2.8,19.8,
O=C1CN(C(=O)N[C@@H](Cc2ccccc2)C(=O)N[C@@H](C(=O)O)c2ccccc2)c2ccccc2N1,-10.4,1.6,i,-18.8,0.3,1.7,-5.2,-5.7,
O=C(NCc1ccc2c(c1)CCO2)Nc1ccccc1,3.4,-1.5,i,x,2.4,-3.2,2.6,-4.8,
CCOc1ncccc1C(=O)OCc1ccccc1,1.2,14.6,i,-13.7,-2.0,-1.7,-1.2,-4.7,
CCN1CCN(c2cc(C)c3cc(NC(=S)N4CCCC4)ccc3n2)CC1,7.5,-15.5,i,x,0.0,0.7,-5.1,40.6,
CCN(CC)S(=O)(=O)c1ccc(C(=O)NCC(c2ccc(OC)cc2)N2CCOCC2)cc1 (configuration not stated),11.2,-4.0,i,x,4.4,6.7,11.1,-3.4,
CC(OC(=O)c1cc(=O)[nH]c2ccccc12)C(=O)Nc1ccccc1F (configuration not stated),x,-4.5,i,-22.5,3.2,2.0,x,-12.9,
Cc1ccc(C(=O)OCC(=O)NC(C)C2CC3CCC2C3)cc1N (configuration not stated),x,x,x,-15.8,4.0,-0.2,x,28.9,
C=CCn1c(=N)n(CC(=O)c2ccc(Cl)cc2)c2ccccc21,-6.9,-5.1,i,-11.1,2.8,3.7,2.5,-11.5,
CCCCn1c(=N)n(CC(=O)O)c2ccccc21,-6.6,-8.3,i,x,1.4,4.1,9.2,2.3,
S=C(Nc1ccc(N2CCOCC2)cc1)Nc1ccc2nc(-c3ccco3)c(-c3ccco3)nc2c1,u,-29.5,i,-13.5,-24.7,-1.4,u,-3.7,
Cn1nc(-c2ccc(Cl)cc2)cc1NC(=O)CSCC(=O)O,4.0,4.8,i,-9.4,1.1,3.5,-1.1,-2.9,
COc1ccc(Cc2nnc(NC(=O)c3cc(OC)c(OC)c(OC)c3)s2)cc1,-0.9,3.3,x,4.8,-3.1,-3.5,-0.4,48.6,
O=C(COc1ccc([N+](=O)[O-])cc1)NNC(=O)Nc1cccc(F)c1,-11.6,13.8,i,-11.3,-0.6,0.1,-5.0,11.4,
O=C(O)c1ccccc1NS(=O)(=O)c1cccc(NS(=O)(=O)c2cc(Br)ccc2Br)c1,x,-3.8,x,2.3,-1.3,3.7,x,-1.3,
CC1=C([N+](=O)[O-])C(c2ccccc2Cl)NC(=O)N1 (configuration not stated),-1.8,6.2,i,-16.1,-3.7,-0.9,6.0,-3.4,
CCCCn1nnnc1NCc1ccc(N(CC)CC)cc1,6.1,26.2,i,1.7,1.6,1.1,-2.1,-12.2,
COc1cc(/C=C(\NC(C)=O)C(=O)O)cc(OC)c1OC,-1.1,-10.0,i,-1.4,5.4,5.4,-1.8,-5.0,
CCOCC(=O)Nc1ccc(S(=O)(=O)Nc2ncccn2)cc1,-3.8,x,i,1.3,0.4,-5.2,3.5,-11.7,
O=C(NCCCc1ccccc1)C(=O)NCC1OCCN1S(=O)(=O)c1cc(F)ccc1F (configuration not stated),-13.5,46.9,i,6.1,0.3,-2.4,10.1,-7.6,

# Screening results (PubChem BioAssay)
